gsp antagonist: gsp mutant antagonism. gsp-mutant cells, cAMP HTRF, 30 min; control for the full effect not named in the record. Potency, µM (highest dose often 76.9 µM), without a hit: top-dose activity change, negative = inhibition, most hits filed as inhibitors. 340,000 compounds, 0.4% hits. AID 624288; active = falling curve of any shape with a large fitted effect; inconclusive = falling curve, mostly with a smaller effect; inactive = flat or rising curve; cell line not stated here;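 note: intracellular cAMP measured with PDE inhibitor Ro 20-1724 present during compound exposure; potency is the fitted concentration of half-maximal effect; % is set by controls: 0 for no effect and ±100 for the full control effect; nearly all actives have a fitted effect of over 65% in size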
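Cells in G418 medium, seeded 16-24 h, 37C; buffer exchange to DPBS + 1 mM CaCl2, 0.5 mM MgCl2, 0.05% BSA; cpds in DMSO + […] (300 uM stock), 30 min 37C; HTRF cAMP detection.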
D2 potentiator: positive allosteric modulators of human D2 dopamine receptor. potentiation, % (no concentration beside the values). DiscoveRx D2 beta-arrestin cells, luminescence, 90 min; 100% = 57 uM dopamine signal. 360,000 compounds, 0.23% hits. AID 624464; active = potentiation of 50% or more; inconclusive = 30% to 50%; inactive = 30% or less;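 note: compound concentration not given in the record; tested on top of an EC20 dose of dopamine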
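D2 cells co-treated with compound plus 50 nM dopamine (EC20) for 90 min at 37 deg C to detect potentiation. Beta-arrestin recruitment was read as enzyme-fragment luminescence after 1 h at ambient temperature. Full response was set by 57 uM dopamine.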
CtBP-E1A inh: blocks the CtBP interaction with E1A; AlphaScreen GST-E1A/His-CtBP binding, 1536-well; active compounds read low; control for the full effect not named in the record; activity change, % (test concentration not listed); 340,000 compounds, 0.49% hits; in the data active means activity change below about -65%; inconclusive means about -30% to -65%; inactive means above about -30%; note: % is set by controls: 0 for no effect and ±100 for the full control effect
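Homogeneous bead-based format: GST-tagged E1A captured on glutathione donor beads, His-tagged CtBP on nickel acceptor beads; compounds precede bead addition by 2 h at 37 °C.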
gsp ag: gsp mutant agonism. gsp mutant cells, cAMP HTRF, 30 min; control for the full effect not named in the record. 340,000 compounds, 0.13% hits. AID 624287. Potency, µM (top dose mostly 76.9 µM), without a hit: top-dose activation (cAMP increase), hits mostly activators; active = well fitted activation curve with a large enough effect; inconclusive = small, poorly fitted or top-dose-only effect, or another doubt; inactive = no such curve, though single readings can be large or run the other way; cell line not stated here;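 note: phosphodiesterase inhibitor Ro 20-1724 added with compounds to block cAMP breakdown; potency is the fitted concentration of half-maximal effect; nearly all actives have a fitted effect of over 60% in size; about a fifth of the inactives were tested at one dose only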
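Cells in DMEM/10% FBS with G418 were pretreated with compounds in DMSO plus […] (300 uM stock) for 30 min at 37C. cAMP was measured by HTRF (cAMP-d2 plus anti-cAMP antibody-K) after 30 min at room temperature.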
D2 agonist: agonists of human D2 dopamine receptor (beta-arrestin); P14416; DiscoveRx PathHunter D2 beta-arrestin, luminescence, 90 min; 100% = 57 uM dopamine signal; activation, % (concentration not given with the values); 360,000 compounds, 0.084% hits; AID 624465; in the data active = activation above about 40%; inconclusive = about 15% to 40%; inactive = below about 15%; note: the text of the record calls up to 30% inactive
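DiscoveRx PathHunter D2 beta-arrestin cells (2,100/well) attached overnight, then compound-stimulated 90 min at 37 C in HBSS/10 mM HEPES/0.1% Tween-20 buffer; beta-galactosidase complementation read by luminescence after 1 h at ambient temperature. Dopamine 57 uM final (EC100) as control.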
Six1-Eya2 inh: inhibitors of human Six1/Eya2 interaction; AlphaScreen GST-Six1/His-Eya2 binding, biochemical; active compounds read low; control for the full effect not named in the record; activity change, % (test concentration not listed); 360,000 compounds, 0.56% hits; in the data active = activity change below about -65%; inconclusive = about -30% to -65%; inactive = above about -30%; note: % is set by controls: 0 for no effect and ±100 for the full control effect
Target sequence (O00167 whole entry, looked up): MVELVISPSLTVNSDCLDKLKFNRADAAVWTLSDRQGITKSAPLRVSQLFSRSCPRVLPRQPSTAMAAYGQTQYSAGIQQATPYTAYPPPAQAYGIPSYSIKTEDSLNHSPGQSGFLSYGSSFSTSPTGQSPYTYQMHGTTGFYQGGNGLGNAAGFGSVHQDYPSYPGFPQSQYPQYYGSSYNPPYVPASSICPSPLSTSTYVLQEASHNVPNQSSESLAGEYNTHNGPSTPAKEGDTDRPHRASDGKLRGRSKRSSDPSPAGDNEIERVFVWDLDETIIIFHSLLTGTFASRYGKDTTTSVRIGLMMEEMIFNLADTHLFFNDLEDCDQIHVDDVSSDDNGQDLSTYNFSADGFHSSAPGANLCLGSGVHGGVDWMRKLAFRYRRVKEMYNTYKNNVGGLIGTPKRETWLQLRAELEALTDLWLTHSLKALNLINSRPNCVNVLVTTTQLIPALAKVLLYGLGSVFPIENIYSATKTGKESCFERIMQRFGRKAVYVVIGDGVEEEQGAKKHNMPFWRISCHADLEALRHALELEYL
Target sequence (Q15475 whole entry, looked up): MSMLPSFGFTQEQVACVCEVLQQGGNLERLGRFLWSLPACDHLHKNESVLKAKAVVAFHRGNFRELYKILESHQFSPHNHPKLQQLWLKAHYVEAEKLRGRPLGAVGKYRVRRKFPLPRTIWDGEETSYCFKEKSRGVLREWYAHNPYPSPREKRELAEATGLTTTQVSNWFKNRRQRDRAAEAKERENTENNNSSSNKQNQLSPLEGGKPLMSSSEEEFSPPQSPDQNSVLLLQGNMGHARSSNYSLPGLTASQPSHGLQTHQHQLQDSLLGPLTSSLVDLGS
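Compounds are tested against tagged Six1 and Eya2 proteins bridged by glutathione donor and nickel acceptor beads; after a one-hour incubation at 37 °C without light, AlphaScreen emission is recorded.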
* hit, by the source's call; ? = inconclusive; . = no result given; [ ] = remark or other dose.

Sequence of screens: gsp antagonist	D2 potentiator	CtBP-E1A inh	gsp ag	D2 agonist	Six1-Eya2 inh
COc1ccc(Cc2nc3ccc(C(=O)NC(C)Cc4ncccc4C)cc3o2)cc1OC (stereo not given)
    ?	5	6	-4%	8.0	-5
CC(=O)Oc1ccccc1C(=O)OCCN=C1NS(=O)(=O)c2ccccc21
    .	-8	-10	0%[15.4 µM]	-3.4	-1
Cc1cc(N(C)C)c(C#N)c(N2CCCCC2)n1
    0%	1	4	15%	-3.2	3
Cc1cc(C(=O)NNC(=O)c2ccc(Cl)cc2)c2ccccc2n1
    5%	-4	-3	-43%	3.8	-1
COc1ccc(OC)c(C2=NOC(C(=O)Nc3ccc4c(c3)OCCO4)C2)c1 (stereo not given)
    -7%	-17	-4	1%	-1.2	-6
CCCn1c(=S)[nH]c2cc(C(=O)N3CCc4ccccc43)ccc2c1=O
    ?	-6	2	7%	-1.6	6
Cn1cccc1Cc1nnc(SCC(=O)Nc2ccc3c(c2)OCO3)n1CCc1ccccc1
    -10%	-3	-23	2%	-0.9	-9
O=C(NC(=S)Nc1c(F)cc(F)cc1Br)c1ccc2c(c1)OCCO2
    -12%	-10	6	10%	-4.8	20
O=C(c1ccco1)N1CCN(C2CN(Cc3ccc([N+](=O)[O-])cc3)S(=O)(=O)C2)CC1 (stereo not given)
    .	.	1	?	-0.4	-2
Cc1c(Oc2ccc(C(F)(F)F)cc2[N+](=O)[O-])ccc2c3c(c(=O)oc12)CCC3
    6%	0	0	17%[15.4 µM]	3.9	3
CC1(C(=O)OCC(=O)Nc2cc(S(=O)(=O)N3CCOCC3)ccc2Cl)CC1(Cl)Cl (stereo not given)
    -24%	16	.	26%	0.1	-5
Cc1nc(COC(=O)c2ccc(S(=O)(=O)N3CCCC3)cc2)cs1
    7%	5	-8	-14%	-2.2	4
CC1CCN(C(=O)COC(=O)c2ccc3c(c2)C(=O)N(Cc2ccco2)C3=O)CC1
    -8%	12	-1	14%[15.4 µM]	1.4	-8
CCOc1cc(C(=O)Nc2ccc([N+](=O)[O-])cn2)cc(OCC)c1OCC
    4%	-10	-14	-12%[15.4 µM]	-4.9	-8
O=C(NNS(=O)(=O)c1ccccc1[N+](=O)[O-])c1cccnc1
    12%	-3	12	?	4.9	3
Cc1nnc(C)n1/N=C/c1ccc(C(C)C)cc1
    7%	-5	6	-1%	-1.5	-3
Cc1ccn2c(C(=O)NNC(=O)Nc3ccc(Cl)cc3)c(C)nc2c1
    6%	-11	-10	?	0.6	-24
CC(C)(C)c1ccc(S(=O)(=O)NC(=O)C2(C)CCN2C(=O)CC2CC2)cc1 (stereo not given)
    .	-8	5	.	-6.0	9
CC1Cn2c(nc3sc4c(c3c2=O)CCC4)N1CCO (stereo not given)
    -5%	-19	-3	0%	-2.4	-2
Cn1c(N)c(S(=O)(=O)N2CCN(c3ccccc3F)CC2)c(=O)n(C)c1=O
    5%	-9	0	-4%	-1.3	10
CCOC(=O)C1C(c2cccc(Cl)c2Cl)NC(=O)NC1(O)C(F)(F)F (stereo not given)
    1%	1	-5	-46%[inhibitor]	-3.1	1
COCCNC(=O)C1CC(=O)N(c2ccc(F)c(Cl)c2)C1 (stereo not given)
    -4%	-2	2	2%	-4.1	8
Cc1ccc(NC(=O)CNCc2ccc(Cl)cc2Cl)cc1S(=O)(=O)N(C)C
    -9%	-6	1	2%	2.5	-1
C=CCN(CC=C)C(=O)c1ccccc1NC(=O)c1ccccc1C
    -4%	2	2	-5%	-3.2	1
CN(CC(O)COc1ccc(OCC(O)CN(C)C2CCCCC2)cc1)C1CCCCC1 (stereo not given)
    -6%	-19	2	-13%	-3.3	-1
Cc1ccc(O)c(C=Nc2cc(C)ccc2O)c1
    3%	58*	-3	8%	6.7	1
O=C1CCc2ccc(NS(=O)(=O)c3ccc(F)cc3)cc2N1
    13%	-1	2	-12%	4.8	0
COc1ccc(/C=C/c2nc(S(=O)(=O)c3ccccc3)c(N(C)C)o2)cc1OC
    -34%	-9	.	-5%	-0.8	8
Nc1nc(NCC(=O)O)nc(NC2CCCCC2)c1[N+](=O)[O-]
    -5%	2	14	?	-11	8
COc1ccc(-n2ncc3c(NCc4ccccn4)ncnc32)cc1
    -3%	10	-8	?	0.3	-13
N#Cc1ccc(C(=O)Nc2nc3ccccc3[nH]2)cc1
    -9%	-9	1	20%	-0.1	4
COc1ccc(/C=C/C(=O)Nc2ccccc2C(F)(F)F)cc1OC
    -5%	0	0	-12%[15.4 µM]	0.0	0
O=C(CSc1nc2[nH]ncc2c(=O)[nH]1)Nc1cccc(Cl)c1
    7%	-6	-1	16%[15.4 µM]	-5.6	-10
COC(=O)c1cccc(NC(=O)c2ccccc2)c1
    -1%	-14	.	0%	-4.6	0
CCCCCCn1nc(C(=O)OCC(=O)NC2CCS(=O)(=O)C2)c2ccccc2c1=O (stereo not given)
    -4%	-10	-17	-17%[15.4 µM]	-4.7	19
O=C(c1cccnc1)N1CCN(C(=O)c2ccccc2F)CC1
    7%	-1	3	22%	-2.8	6
Cc1ccc(S(=O)(=O)/C(C#N)=C/c2c(N3CCOCC3)nc3c(C)cccn3c2=O)cc1
    -42%	-1	3	1%[15.4 µM]	-5.7	?
OCC[C@H]1C[C@@H](O)[C@H](O)[C@@]2(CCc3ccccc3O2)O1
    4%	-8	4	.	-1.2	6
O=C1CCSc2cccc3cccc(c23)N1
    10%	-19	-12	-11%	-2.0	-14
Cn1nnnc1SCc1ccc(C(=O)Nc2ccccc2F)cc1
    -1%	3	1	0%	-1.4	-5
CCCC(=O)NCn1nnc(-c2ccc(Cl)cc2)n1
    7%	-3	8	-15%[15.4 µM]	3.0	12
Cc1cc(C)c(C#N)c(Sc2ccccc2N)n1
    -5%	-7	?	-32%[inhibitor]	-3.9	?
COc1cccc(C(NC(C)=O)c2nc(-c3ccc4c(c3)OCO4)cs2)c1 (stereo not given)
    .	-4	-2	.	-1.7	-7
C=CCNC(N)=S
    13%	-6	13	?	-6.6	5
COc1cc(/C=C(\NC(C)=O)C(=O)O)cc(OC)c1OC
    18%	-2	8	-28%	-3.1	6
O=C(Cc1cc(=O)oc2cc(O)ccc12)NC(Cc1ccc(Cl)cc1)C(=O)O (stereo not given)
    7%	-2	3	28%	-3.1	-4
O=C(O)CSCC(=O)N1CCN(c2ccnc3cc(Cl)ccc23)CC1
    13%	-3	5	-57%[inhibitor]	-3.0	12
CCN(CC)S(=O)(=O)c1ccc(N2CCOCC2)c(NC(=O)C(C)(C)C)c1
    -14%	-1	1	-3%	-2.0	-11
CCOC(=O)N1CCN(Cc2nnc(-c3cccc(Br)c3)o2)CC1
    0%	-6	-1	18%	-1.1	0
Cc1cc(Cl)ccc1OCC(=O)Nc1ccccc1N1CCOCC1
    -9%	-2	6	-16%	-1.7	10

(next part)
Sequence of screens: gsp antagonist	D2 potentiator	CtBP-E1A inh	gsp ag	D2 agonist	Six1-Eya2 inh
O=C(C[n+]1cc(-c2ccccc2)n2c1CCC2)OCc1ccccc1
    11%	-13	1	-49%[inhibitor]	2.9	7
O=C(c1ccc(Br)s1)N1CCCC1
    2%	-6	1	-12%	-3.8	-1
Nc1nnc(SCc2cccc(C(F)(F)F)c2)s1
    4%	-2	1	-52%[inhibitor]	1.9	1
O=C(O)COc1ccc(C(=O)Cc2ccc3c(c2)OCCCO3)c(O)c1
    -5%	-3	14	?	4.2	3
C=CCOC(=O)C1=C(C)N=C2SCCC(=O)N2C1c1ccc(OC(=O)c2ccco2)cc1 (stereo not given)
    -2%	-22	-3	-14%	-0.6	-4
O=C(CSc1nc2ccccc2[nH]1)NC(=O)NCc1ccco1
    5%	-4	-7	-5%	1.4	-13
COC(=O)c1ccc(Cn2cc([N+](=O)[O-])cn2)cc1
    3%	-4	1	2%[15.4 µM]	-3.3	-2
Cn1c(SCC(=O)OCC(=O)c2ccccc2)nnc1-c1cccs1
    -17%	-8	-1	-40%[inhibitor]	-1.7	1
C=C(Br)Cn1c(CCC)nc2ccccc21
    0%	-7	6	-15%	-1.6	9
O=C(Nc1nccs1)c1ccc(-c2ccc(Cl)cc2Cl)o1
    14%	-6	-3	-13%[15.4 µM]	-8.0	1

The closing four entries of the section above come first, to join the parts.
Sequence of screens: gsp antagonist	D2 potentiator	CtBP-E1A inh	gsp ag	D2 agonist	Six1-Eya2 inh
COC(=O)c1ccc(Cn2cc([N+](=O)[O-])cn2)cc1
    3%	-4	1	2%[15.4 µM]	-3.3	-2
Cn1c(SCC(=O)OCC(=O)c2ccccc2)nnc1-c1cccs1
    -17%	-8	-1	-40%[inhibitor]	-1.7	1
C=C(Br)Cn1c(CCC)nc2ccccc21
    0%	-7	6	-15%	-1.6	9
O=C(Nc1nccs1)c1ccc(-c2ccc(Cl)cc2Cl)o1
    14%	-6	-3	-13%[15.4 µM]	-8.0	1
CS(=O)c1ccccc1-c1nc(-c2ccc(Cl)cc2)no1 (stereo not given)
    -18%	-4	8	-1%[15.4 µM]	-5.0	2
O=C1N=C(N2CCN(c3cccc4ccccc34)CC2)S/C1=C/c1cccs1
    -1%	-8	-7	?	-1.0	-8
CCC1(c2ccccc2)NC(=O)N(CC(=O)N(C)CC(=O)Nc2cccc(F)c2)C1=O (stereo not given)
    2%	-19	7	-49%[inhibitor]	-3.7	2
Cc1noc(C)c1C(=O)OCC(=O)Nc1ccc(N2CCOCC2)cc1
    6%	-5	-17	8%	-3.8	-2
COC(=O)c1scc(C)c1NC(=O)c1ccccc1F
    -4%	9	.	-9%	-13	0
Cc1nc2ccccc2nc1CC(O)(c1ccccc1)c1ccccc1
    .	0	4	-20%	-1.0	2
COc1ccc(CCN2C(=O)C3C4CC(C5C(C(=O)NN)=NOC45)C3C2=O)cc1OC (stereo not given)
    6%	-14	-1	4%	0.4	8
CCOC(=O)Nc1ccc(S(=O)(=O)N2CCOCC2)cc1
    7%	-4	5	-9%	-0.8	3
Nc1c(Cl)cc(N=Nc2ccccc2)cc1Cl
    2%	-12	?	-43%	2.3	?
Cc1ccc(S(=O)(=O)N2CC3(C)CN(S(=O)(=O)c4ccc(C)cc4)CC(C)(C2)C3=O)cc1
    1%	-16	40	-44%[inhibitor]	-1.4	26
CCCCNCc1cc2ccccc2o1
    11%	-24	15	15%	-3.2	2
COc1cc(C(C)=O)ccc1COc1ccc(C(=O)OCC(=O)NC2CCS(=O)(=O)C2)cc1OC (stereo not given)
    -11%	-18	-7	-5%	-2.7	3
CNC1(C(N)=O)CCNCC1
    4%	4	.	-21%	-1.0	-1
CC(C)S(=O)(=O)N1CCCC(C(=O)c2cccc(Cl)c2)C1 (stereo not given)
    6%	-7	9	-5%[15.4 µM]	-6.7	7
CN(C)CCCC1Sc2ccccc2Sc2ccccc21 (stereo not given)
    1%	-17	-5	3%[15.4 µM]	-2.0	0
